HPGD inh – blocks human HPGD enzyme activity | P15428 | purified HPGD, NADH fluorescence kinetic, PGE2 substrate | Potency, µM, for the others: top-dose activity change, negative = inhibition, most hits filed as inhibitors | 4.3% of 150,000 active; active = well fitted inhibition curve with a large enough effect (not every such curve was filed as active); inconclusive = small, poorly fitted or top-dose-only effect, or another doubt; inactive = no such curve, though single readings can be large or run the other way;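 also: top concentration of the series not given in the record; plate controls included wells without enzyme; inactives centre near -10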
Target sequence (P15428 whole entry, looked up): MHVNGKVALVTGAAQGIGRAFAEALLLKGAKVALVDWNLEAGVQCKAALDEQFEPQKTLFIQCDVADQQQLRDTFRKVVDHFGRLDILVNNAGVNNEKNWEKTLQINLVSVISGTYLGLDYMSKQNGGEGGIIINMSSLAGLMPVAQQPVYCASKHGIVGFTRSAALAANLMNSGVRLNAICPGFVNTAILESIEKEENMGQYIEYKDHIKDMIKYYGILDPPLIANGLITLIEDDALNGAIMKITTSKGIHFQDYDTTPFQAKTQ
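20 nM HPGD preincubated 15 min at room temperature with compound in 50 mM Tris-HCl pH 8, 0.01% Tween 20. Started with 1 mM NAD+ and 30 uM prostaglandin E2; NADH fluorescence (360/450 nm) read 5 times over 30-s intervals, last minus first.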
* = called active by the depositor; ? = inconclusive; & = joins results of further samples. % is scaled to controls: 0 for no effect and ±100 for the full control effect; potency is read from the fitted curve at half-maximal effect.

SMILES	HPGD inh
COc1cc(Sc2ccc(C)cc2)c(OC)cc1N	28.2µM*
CC(NC(=O)C1CCC1)c1ccc2c(c1)OCO2 (stereo unspecified)	20µM*
CCOc1ccc(N2CC(C(=O)NCc3ccc(F)cc3)CC2=O)cc1 (stereo unspecified)	-4.8%
C=CCSC1=N/C(=C\c2ccc(C)o2)C(=O)S1	-12.9%
Cc1cc(C)c(NC(=O)CS(=O)CC(=O)NCC2CCCO2)c(C)c1 (stereo unspecified)	-13.7%
N#CC1=C(N)NC(SCc2ccccc2)=C(C#N)C12CCCCC2	-27.4%
CCNc1nc(NCC)nc(Nn2cnnc2)n1	5.1%
CN(C)c1ccc(/C=N/N=C/c2ccccc2O)cc1	-7.2%
FC(F)(F)c1ccccc1Nc1nccs1	-14.1%
CC1CCN(S(=O)(=O)c2ccc(NC(=O)CN3CCCC(C)C3)cc2)CC1 (stereo unspecified)	-15.7%
Cc1ccc(N2C(=O)c3ccccc3C2Nc2cccnc2)nc1 (stereo unspecified)	-0.7%
O=C(CSc1nc(-c2ccccc2F)nc2nc[nH]c12)Nc1c(Cl)cc(Cl)cc1Cl	-14.7%
CCCCCCCCCn1cc(C(C)=O)c(=O)[nH]c1=O	-10.3%
CCCNC(=S)N1CCN(CC)CC1	-6.5%
COc1ccc(CN(Cc2cccnc2)C(=S)NCCc2ccccc2)cc1OC	-13.7%

Some of these compounds in order of formula weight, largest number first.
SMILES	HPGD inh
CC1CCN(S(=O)(=O)c2ccc(NC(=O)CN3CCCC(C)C3)cc2)CC1 (stereo unspecified)	-15.7%
COc1cc(Sc2ccc(C)cc2)c(OC)cc1N	28.2µM*
CCNc1nc(NCC)nc(Nn2cnnc2)n1	5.1%

Following part:
SMILES	HPGD inh
Cc1cc(C)cc(Oc2ccccc2/C=C\C(=O)O)c1	-5.4%
CCCc1cc(=O)[nH]c(SCC(=O)N2CCN(S(=O)(=O)c3ccc4ccccc4c3)CC2)n1	3.2%
CCOc1ccc(S(=O)(=O)NCc2csc(C)n2)cc1	-8.8%
C=CC(C)(C)c1c2c(c(O)c3c(=O)c4ccc(O)c(O)c4oc13)C=CC(C)(C)O2	-9.2%
O=C(c1ccc(S(=O)(=O)NCC2CCCO2)cc1)N1CCc2ccccc21 (stereo unspecified)	-12.5%
O=c1c(-c2ccc(F)cc2)nc2cnc(Oc3ccccc3)nc2n1C[C@H]1CCCO1	?
CCCc1nnc(SCCSc2nnc(CCC)n2N)n1N	-5.7%
O=C1CN=CN=CN1c1ccc(Cl)cc1Cl	-7.7%
Clc1ccc(/C=N/Nc2nnc(-c3ncc[nH]3)c3ccccc23)cc1	-10.5%
COCc1cc(C)nc(N2CCOCC2)c1C#N	?
Cc1ccc(SCc2c(-c3ccccc3)nn(C)c2Cl)cc1	-8.2%
COC(=O)c1ccc(CSc2nnc(NCc3ccccc3)s2)o1	14.1µM*
CCCC(=O)N=C1SC2CS(=O)(=O)CC2N1c1ccc(CC)cc1 (stereo unspecified)	1.1%
CC(C)Cn1c(=O)n(C)c(=O)c2[nH]cnc21	-5.5%&-9.5%&-6.3%
COc1ccc(-c2nsc3c(N4CCCC4)ncnc23)cc1	-26.6%
CCc1c(C(C)S(=O)(=O)c2ccc(C)cc2)[nH]c(=O)n1-c1ccc(C)cc1 (stereo unspecified)	-21.6%
O=C(Cn1cnc2ccccc2c1=O)NCc1ccc2c(c1)OCO2	-3.8%
O=C(NC(=S)NNC(=O)c1cccs1)c1ccco1	-22.1%
Cc1cccc(Oc2ncnc(N)c2[N+](=O)[O-])c1	-4.4%
Cc1nnc2n(C3CCCCC3)c(=O)c3c4c(sc3n12)COC(C)(C)C4	-2.5%
CCOC(=O)c1c(CN2CCN(Cc3ccccc3)CC2)n(C)c2cc(Br)c(OC)cc12	-7.9%
CC(=O)C1=C(O)C(=O)N(c2ccc(C)cc2)C1c1ccccn1 (stereo unspecified)	?
Cc1ccc(NC(=O)C2CCCN(S(=O)(=O)c3cccs3)C2)cc1 (stereo unspecified)	0.1%
CN(C)S(=O)(=O)N1CCCN(S(=O)(=O)N(C)C)CC1	-2.6%
CC(C)(C)C(=O)NC(=S)NNC(=O)c1sc2ccccc2c1Cl	-15.0%
Fc1ccccc1NC(=S)NCc1ccc2c(c1)OCO2	-16.3%
CCc1cc2c(N3CCN(c4ccccc4)CC3)ncnc2s1	-24.3%
Clc1ccc(N2N=C(c3cccs3)CC2c2ccco2)cc1 (stereo unspecified)	?
O=C(OCc1ccccc1)c1cn(-c2ccccc2)nc1-c1ccncc1	?
CCNc1nc(C)c(CN(C(C)=O)c2ccccc2)nc1C#N	?
CCCCN(CC)S(=O)(=O)c1ccc(C(=O)Nc2nnc(-c3cccs3)o2)cc1	-21.7%
COC(C)(C)[C@]12CC(O)(c3ccccc3)ON1[C@H]1CCCCC1N2O (stereo partly specified)	2.7%
Cc1c(C(=O)OCC(=O)NCCN2C(=O)CSC2=O)oc2c1ccc1ccccc12	?
CCCCCNC(=O)C(C)NS(=O)(=O)c1ccc(OC)cc1 (stereo unspecified)	-7.4%
COCCNC(=O)C1CCCN(c2ncccn2)C1 (stereo unspecified)	?
COc1ccc(OC(=O)c2cccnc2)cc1	-6.6%
O=C(NCCCN1CCCC1=O)c1ccc2c(c1)NC(=O)c1ccccc1S2	-16.5%
CCn1c(C)cc(/C=C2/NC(=O)N(CC(=O)Nc3cccc(C)c3)C2=O)c1C	-6.1%
Cc1cc(=O)n2c(ccc3ccccc32)c1C#N	-12.7%
Cc1cc(C(=O)CSC(=S)SC(C)(C)C)ccc1Cl	-10.8%
COc1ccccc1CNC(=O)CN1C(=O)C(C)N(c2ccc(C)cc2)C1=O (stereo unspecified)	-9.6%
CC(C)=CC(=O)Nc1nnc(C)s1	3.6%
CCC(CO)NCc1cc(OC)c(OCC(=O)NCCc2ccccc2)cc1Br (stereo unspecified)	-12.5%
CC/C(=N/Nc1ccccc1C)c1cnnc(SC)n1	-21.5%
CCC(C)Sc1nc2c(cnn2-c2ccccc2)c(=O)[nH]1 (stereo unspecified)	-13.7%
Cc1cc2cc(C(c3nnnn3C(C)(C)C)N(Cc3ccco3)CC3CCCO3)c(=O)[nH]c2cc1C (stereo unspecified)	-20.3%
Cc1sc2ncn(CC(=O)NCCCC(=O)N3CCN(c4ccccc4)CC3)c(=O)c2c1C	-8.3%
O=C(COC(=O)c1ccccn1)Nc1ccccc1Cl	-2.1%
O=C(Cn1nnc(-c2ccc(Cl)cc2)n1)NC1CC2CCC1C2 (stereo unspecified)	-4.6%
O=C(COc1ccccc1)NC(NC(=S)Nc1ccccc1O)C(Cl)(Cl)Cl (stereo unspecified)	-18.2%
CCOC(=O)N1CCN(C(=O)CN(c2ccc(Cl)c(C(F)(F)F)c2)S(C)(=O)=O)CC1	-6.0%
CC1CCN(C(=O)C2CCC(C)(C(=O)O)C2(C)C)CC1 (stereo unspecified)	-3.4%
Cc1sc2nc(C(C)C)nc(SCC(=O)NCc3ccco3)c2c1C	-7.8%
Cc1ccc2c(CSc3nnc(C4CC4)n3N)cc(=O)oc2c1	?
Cc1ccc(NC(=S)Nc2ncccc2C)c(C)c1	-23.2%
COc1ccc(NC(=O)C(NC(C)=O)C(=O)NCc2ccccc2)cc1 (stereo unspecified)	-16.8%
c1coc(-c2nnc(SCc3cn4ccccc4n3)o2)c1	-12.3%
CCN1CCC[C@H]1CNC(=O)c1c(OC)ccc(Br)c1OC	-7.4%&-6.0%
O=C(c1cc(-c2cccs2)on1)N1CCc2ccccc2C1	12.6µM*
Cc1cc(C(=O)N/N=C/c2ccc(Cl)c([N+](=O)[O-])c2)c(C)n1-c1ccc(F)cc1	-5.5%

New compounds follow
SMILES	HPGD inh
CSc1n[nH]c(NCc2ccc(Cl)cc2)n1	-24.0%
COc1ccc(C2N=C(c3ccccc3)C(C)(C)N2O)cc1 (stereo unspecified)	-1.6%
Cc1ccccc1-n1c(O)c(/C=C/C=Nc2ccccc2)c(=O)[nH]c1=O	-27.3%
CC(C)(C)C(=O)NC(=S)N1CCCC1	-4.9%
Cc1ccc2nc(NNC(=O)c3ccc(S(=O)(=O)N4CCc5ccccc5C4)cc3)sc2c1	-7.5%
O=C(Oc1cccc(N2C(=O)CCC2=O)c1)c1ccccc1	-14.9%
c1nnn(C23CC4CC(CC(C4)C2)C3)n1	-4.6%
O=C(c1ccco1)N1CCN=C1SCc1cccc(Cl)c1	-16.2%
O=C(c1ccc(CN2CCOCC2)cc1)N1CCN(c2ccccc2F)CC1	-2.1%
COC(=O)c1ccccc1NC(=O)C1CCN(S(C)(=O)=O)CC1	-14.7%
CCOc1ccc(N2CCCn3c2nc2c3c(=O)n(CCc3ccccc3)c(=O)n2C)cc1	?
CCOC(=O)c1c(C)nn(Cc2ccccc2)c1N	-28.4%
Cc1cccc(NC(=S)NC2CC3CCCC(C2)N3Cc2cccs2)c1C (stereo unspecified)	-7.0%
O=C(N/N=C\C=C\c1ccc2c(c1)OCO2)C1COc2ccccc2O1 (stereo unspecified)	?
CC(C)(C)c1ccc(CSc2nnc(-c3ccccc3NC(=O)c3ccccc3)o2)cc1	?

Another view of four compounds above.
Cc1ccccc1-n1c(O)c(/C=C/C=Nc2ccccc2)c(=O)[nH]c1=O
  HPGD inh: -27.3%

CC(C)(C)C(=O)NC(=S)N1CCCC1
  HPGD inh: -4.9%

O=C(Oc1cccc(N2C(=O)CCC2=O)c1)c1ccccc1
  HPGD inh: -14.9%

CCOC(=O)c1c(C)nn(Cc2ccccc2)c1N
  HPGD inh: -28.4%

(next part)
SMILES	HPGD inh
COc1cc(OC)cc(C(=O)Nn2cc(C(=O)Nc3ccc(F)cc3F)c3ccccc3c2=O)c1	-0.7%
CCCCCCOc1cccc(N)c1	-17.6%
Cc1ccc(F)c(NC(=O)CCc2ccccc2)c1	-17.3%
COc1ccc(-n2c(C)cc(/C=N/Nc3nnc(C)n3N)c2C)cc1	-18.9%
O=C(NCCCN1CCN(CCCNC(=O)c2cc([N+](=O)[O-])ccc2Cl)CC1)c1cc([N+](=O)[O-])ccc1Cl	-14.6%
CC(C)N(CC(=O)O)CC(=O)O	1.5%
CCCC(C(=O)O)N1C(=O)/C(=C/c2cccn2C)SC1=S (stereo unspecified)	17.8µM*
CCOC(=O)C1(C(F)(F)F)N=C(C(F)(F)F)Nc2ccccc21 (stereo unspecified)	-8.5%
CCOc1ccccc1N1CCN(Cc2cccc(OC)c2OC)CC1	-7.4%
COC(=O)c1cn(N(C)c2ncc(C(F)(F)F)cc2Cl)c(=O)c2ccccc12	-7.5%
C/C(Cn1cnc([N+](=O)[O-])n1)=N/NC(=O)COc1c(Cl)cc(Cl)cc1Cl	-5.8%
CCCN(CCC)c1ncnc2nc[nH]c12	-3.8%
Cc1ccc(O)c(C2=Nc3ccccc3N=C(c3cccs3)C2)c1	-8.2%
CCOC(=O)Cc1nn(CCc2ccccn2)c(=O)c2ccccc12	-14.5%
O=C(c1c(O)c2ccccc2oc1=O)C1CCCCC1	-5.1%
Cc1ccc(S(=O)(=O)NC(=O)OC23COCN2COC3)cc1	-6.3%
COc1cc(-c2cc(C(=O)N3CCN(c4ccccn4)CC3)c3ccccc3n2)cc(OC)c1OC	-23.9%
CCC(Sc1n[nH]c(=O)[nH]c1=O)C(=O)OCc1ccccc1 (stereo unspecified)	?
CCc1nnc(NS(=O)(=O)c2ccc(NC(=S)NC(=O)/C=C/c3ccc(OC)cc3)cc2)s1	?
C=Cn1cc[n+](CC(=O)C(C)(C)C)c1	-2.1%
CCOC(=O)c1cc(OC(=O)c2ccccc2Br)n(-c2ccccc2)n1	-10.8%
CCOC(=O)c1cc2sccc2n1CC(=O)N1CCCC1	-9.7%
O=C(N1CCCCC1)N1CCN(C(c2ccccc2)c2ccccc2)CC1	?
C=CCn1nc([N+](=O)[O-])nc1Sc1cccc2cccnc12	-17.2%
CCOC(=O)c1cnc(SC)nc1N	-7.9%
N#Cc1nc(COc2ccc(F)cc2)oc1NCCCn1ccnc1	-2.6%
O=C(COc1ccccc1)NCC(=O)N/N=C/C=C/c1ccccc1	-2.5%
CC(C)CC(=O)Nc1cccc(NC(=O)CC(C)C)n1	-0.7%
COc1cccc(OCC(=O)Nc2cc(Cl)ccc2Oc2ccccc2)c1	-13.0%
Cc1cc2sc(C)[n+](CCCOS(=O)(=O)O)c2cc1C	-2.4%
CC(=O)c1cccc(NC(=O)COc2ccccc2C(=O)c2cc(C#N)c(=O)n(C3CCCCC3)c2)c1	-10.3%
CC1(C)O[C@@H]2C[C@H]3[C@@H]4C[C@H](F)C5=CC(=O)CC[C@]5(C)[C@H]4[C@@H](O)C[C@]3(C)[C@]2(C(=O)CO)O1	-16.2%
CCOC(=O)c1nnn(-c2nonc2N)c1CN(C)Cc1ccccc1	-14.3%
O=C(CO)N/N=C/c1ccc(Cl)cc1	-15.0%
O=C(Nc1ccc(N2CCOCC2)c(Cl)c1)c1ccc(Br)o1	25.1µM*
COc1ccc(-n2c(N)c(C(=O)NCc3ccco3)c3nc4ccccc4nc32)c(OC)c1	?
C=C(C)COc1ccc(-c2nc(N)nc(C)c2-c2ccc(OC)cc2)c(O)c1	-25.2%
CC(CNCC1CCCO1)COc1cccc2ccccc12 (stereo unspecified)	2.0%
O=C1CC(c2ccccc2)n2nc(N3C(=O)c4ccccc4C3=O)nc2N1 (stereo unspecified)	-5.7%
CN(CC(=O)NC1CCCCCC1)S(=O)(=O)c1ccccc1	-2.5%
CN(C)c1ccc(/C=C/C=C2/SC(=S)N(c3ccccc3)C2=O)cc1	-4.6%
COCCCN1C(=O)C(=O)/C(=C(/O)c2ccc(OC(C)C)cc2)C1c1ccc(O)c(OC)c1 (stereo unspecified)	-10.1%
CCNC(=S)NNC(=O)c1csc(C)c1	-7.1%

Compound activity as filed in PubChem BioAssay.

Only part of the results is shown; the hit share may differ from the screen's.
